Source: PubChem BioAssay (National Center for Advancing Translational Sciences (NCATS))
VDR inhibitor: Inhibitors of the vitamin D receptor (VDR): qHTS. Vitamin D3 receptor (Homo sapiens), P11473. VDR-SRC2-3 peptide fluorescence polarization, 2 h. Potency, µM, for inactives: max response, negative = inhibition, hits mostly inhibitors. actives 0.93% (n = 400,000). AID 504847, 2011; active = well fitted inhibition curve with a large enough effect; inconclusive = small, poorly fitted or top-dose-only effect, or another doubt; inactive = no such curve, though single readings can be large or run the other way; note: series mostly up to about 120 µM
Target sequence (P11473 whole entry, looked up): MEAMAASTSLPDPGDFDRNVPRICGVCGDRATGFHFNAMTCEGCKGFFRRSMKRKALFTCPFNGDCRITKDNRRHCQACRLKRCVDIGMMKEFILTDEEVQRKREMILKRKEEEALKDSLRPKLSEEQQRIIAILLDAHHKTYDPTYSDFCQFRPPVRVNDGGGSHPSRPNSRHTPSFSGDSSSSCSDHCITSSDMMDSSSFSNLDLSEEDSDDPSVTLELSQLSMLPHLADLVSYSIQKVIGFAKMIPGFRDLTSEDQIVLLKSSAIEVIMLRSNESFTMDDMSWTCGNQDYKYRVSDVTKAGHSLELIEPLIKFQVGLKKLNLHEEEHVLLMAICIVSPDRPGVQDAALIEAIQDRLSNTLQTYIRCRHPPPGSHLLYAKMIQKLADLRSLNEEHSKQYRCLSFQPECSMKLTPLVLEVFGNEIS
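Inhibition of the VDR/SRC2-3 peptide interaction is quantified by fluorescence polarization. Compounds (23 nl, pintool) incubate with the reagents for 2 hours at ambient room temperature.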
An asterisk follows results filed as active; ? = inconclusive. % is set by controls: 0 for no effect and ±100 for the full control effect; potency is the fitted concentration of half-maximal effect.

SMILES | VDR inhibitor
Cc1ccccc1SCC(=O)OCC(=O)N(C)c1c(N)n(Cc2ccccc2)c(=O)[nH]c1=O | -1%
Cc1ccc(/C=C2/Sc3ccc(C(=O)NCCN4CCOCC4)cc3NC2=O)cc1 | -15%
O=C1CC(c2ccc3c(c2)OCO3)c2cc3c(cc2N1)OCCO3 (centres undefined) | 10%
CCOc1ccccc1NS(=O)(=O)c1ccc2c(c1)N(C)CCO2 | 4%
Cc1cc2c(cc1S(=O)(=O)Nc1cccc(C#N)c1)OCC(=O)N2 | 12%
CCOc1ccc(NC(=O)CN(C)C(=O)c2ccc(COc3ccccc3)o2)cc1OCC | 1%
COc1ccc(/C=C/C(=O)OCC(=O)NC2CCCC(C)C2C)c(OC)c1 (centres undefined) | -4%
Cc1ccc(C2c3[nH]c4ccccc4c3CCN2C(=O)CCC2CCCC2)cc1 (centres undefined) | ?
Cc1cc(NC(=O)CCC(=O)N(Cc2ccccc2)C(C(=O)NC2CCCC2)c2ccco2)no1 (centres undefined) | 7%
O=C(O)CNC(=O)c1ccc(NC(=O)/C(=C/c2cccc([N+](=O)[O-])c2)NC(=O)c2ccco2)cc1 | -8%
Nc1nc(CCOc2ccc(F)cc2)cs1 | -9%
COc1ccc(S(=O)(=O)Nc2cc(C(C)C)c(O)cc2C)cc1 | 2%
COc1ccc(Cl)cc1C(=O)NNC(=O)COC(=O)CC(NC(C)=O)c1ccccc1 (centres undefined) | -9%
COc1ccccc1OC(=O)CCc1nc2ccccc2s1 | -14%
N#CC1(Nc2ccc(C(=O)O)cc2)CCCC1 | -2%
Cc1ccc(/C=N/NC(=O)c2nnn(-c3nonc3N)c2CSc2ccc(Cl)cc2)cc1 | 4%
COc1cc(Cl)ccc1OCc1cc(C(=O)NCC(C)(C)N2CCOCC2)no1 | 8%
COc1ccc(C)cc1N(C(=O)Cn1nnc(-c2ccc(C)o2)n1)C(C(=O)NC1CCCC1)c1ccncc1 (centres undefined) | -2%
CC(C)C[C@H](N)C(=O)N[C@H](C(=O)N[C@H](C(=O)N[C@@H](Cc1ccc(O)cc1)C(=O)N1CCC[C@H]1C(=O)N[C@@H](Cc1c[nH]c2ccccc12)C(=O)N[C@H](C(=O)N[C@@H](CCC(N)=O)C(=O)N[C@@H](CCCN=C(N)N)C(=O)O)[C@@H](C)O)C(C)C)C(C)C | 7%
COc1cc(OC)c(N(C)S(=O)(=O)c2cccc(C(=O)NC(C)C3CC4CCC3C4)c2)cc1Cl (centres undefined) | 0%
O=C(CN1C(=O)CCS(=O)(=O)c2ccccc21)Nc1ccc(F)cc1 | 19%
CSc1nnc(C(C)(C)C)c(=O)n1/N=C/c1c(O)ccc2ccccc12 | 1%
O=C(NC(=O)c1ccccc1)Nc1ccccc1 | 2%
COc1ccc(C(CNC(=O)c2ccc(S(=O)(=O)Nc3ccccc3F)cc2)N(C)C)cc1 (centres undefined) | 5%
CCN(CC(=O)Nc1ccc(NC(C)=O)cc1)C(=O)CSCC(=O)Nc1ccc(C)cc1 | -15%
Cn1c(=O)oc2cc(S(=O)(=O)Nc3ccc(F)cc3)ccc21 | -1%
O=S(=O)(c1ccccc1)N1CCC[C@@]2(CCN(Cc3ccccc3)C2)C1 | ?
O=C(COC(=O)CNC(=O)C1CCCCC1)Nc1ccccc1 | 4%
O=C(O)C1(S(=O)(=O)CCC(F)=C(F)F)CC1 | 10%
Cc1ccc(CN(Cc2ccccn2)C(=O)Nc2ccc(C)c(C)c2)cc1 | -12%
CC(=O)Nc1ccc(C(=O)NCC(=O)OCc2ccccc2F)cc1 | -18%
COc1cc2c(c(OC)c1OC)-c1ccc(SC)c(=O)cc1C(NC(=O)C(F)(F)F)CC2 (centres undefined) | -25%
CCN(CC)CCN1C(=O)c2ccccc2NC1c1ccc(Br)cc1 (centres undefined) | 13%
CN(C(=O)CC1C(=O)NCCN1CC(c1ccccc1)c1ccccc1)C(C1CC1)C1CC1 (centres undefined) | -6%
COc1ccc(C(=O)Oc2c(C)occc2=O)cc1OC | -16%
NC(N)=NCCCS(=O)(=O)Nc1ccc(Nc2c3ccccc3nc3cc([N+](=O)[O-])ccc23)cc1 | -13%
COc1ccc(-c2nc(CS(=O)CC(=O)NCc3ccc(Cl)cc3)c(C)o2)cc1OC (centres undefined) | -2%
COc1ccccc1CNC(=O)C1CCCN(c2nc3ccccc3n3cccc23)C1 (centres undefined) | -6%
CCN(CC)S(=O)(=O)c1cccc(NC(=O)c2cc3ccccc3o2)c1 | -5%
CCCc1nc(SCC(=O)Nc2ccc(N3CCOCC3)cc2)c2ccccc2n1 | 9%
COc1cccc2c1OCC1COc3c(c(=O)n(C)c(=O)n3C)C21 (centres undefined) | 1%
CCN1CCN(c2nc3sc4c(c3c(=O)n2-c2ccc(OC)cc2)CCCCC4)CC1 | 4%
Cc1nnc(SCC(=O)N(C)c2ccccc2)n1-n1cccc1 | 7%
O=C(Nc1ccccc1Cl)C1CCCN1C(=O)OCc1ccccc1 (centres undefined) | -13%
CCc1nc(C)cn1S(=O)(=O)c1cc(Cl)c(OC)cc1Cl | 5%
CCCCNS(=O)(=O)/C=C/c1ccccc1 | -10%
COc1cccc(Cn2c(=O)c(-c3ccc(Cl)cc3)nc3cnc(N4CCOCC4)nc32)c1 | 0%
CCOc1ccc(-n2cc(C(=O)Nc3cccc(C)n3)c3cc(OC)c(OC)cc3c2=O)cc1 | 6%
CN(C(=O)c1cccc(NC(=O)Cc2ccc(NC(=O)C3CCN(C(=O)C4CC4)CC3)cc2)c1)C1CCCCC1 | -5%
CCCSC1=C(C#N)C(c2ccc(OC)cc2)C2=C(CC(C)(C)CC2=O)N1 (centres undefined) | -1%
C=CCNc1nnc(SCC(=O)N2CCC(C(N)=O)CC2)s1 | 1%
CCc1cccc(NC(=O)Cn2c(=O)n(CCCCCC(=O)NCc3ccc(F)cc3)c(=O)c3sccc32)c1 | 5%
C#CCOCCOCCOCCNc1nc(N2CCN(C(=O)[C@H]([C@@H](C)CC)n3cc(CCCCN)nn3)CC2)nc(N2CCN(C(=O)[C@H](CCCCN)n3cc(CCC(=O)O)nn3)CC2)n1 | -3%
Cc1sc2ncn(CC(=O)NCCCOC(C)C)c(=O)c2c1S(=O)(=O)N1CCN(c2ncccn2)CC1 | -10%
Cc1cnc(CNc2cc(-c3ccccc3Cl)ncn2)cn1 | -3%
CCOc1ccc(/C(O)=C2/C(=O)C(=O)N(c3ccccn3)C2c2ccc(C)cc2)c(C)c1 (centres undefined) | -4%
CCOc1ccc(N(C)S(=O)(=O)c2ccc3c(c2)CCCN3C(C)=O)cc1 | 5%
CS(=O)(=O)CCC(C(=O)Nc1ccc2c(c1)OCO2)N1Cc2ccccc2C1=O (centres undefined) | -6%
C[C@H](NC(=O)[C@H](Cc1ccccc1)n1c(=O)[nH]c2ccccc2c1=O)C(=O)N1CCC(C(=O)O)CC1 | ?
c1nc2nc(Nc3ccc(N4CCOCC4)cc3)nc(NC3CCCCC3)c2[nH]1 | 3%

New compounds follow.
SMILES | VDR inhibitor
CC(C)CCn1c(=O)c2sccc2n2c(CCCC(=O)Nc3ccc(F)c(Cl)c3)nnc12 | 4%
CCC(C)[C@H](NC(=O)N1CCn2c1nc1ccccc12)C(=O)NCc1ccc(OC)cc1 (some centres undefined) | 17%
CC(=O)Nc1ccc(SCC(=O)NNC(=O)CN(C)S(=O)(=O)c2ccc(C)cc2)cc1 | -9%
CS(=O)(=O)N1CCC(C(=O)NCc2ccccc2)CC1 | -19%
Cc1c(C(=O)Nc2cccc(F)c2)sc2nc(-c3cc4ccccc4oc3=O)[nH]c(=O)c12 | 1%
COc1ccccc1/C=C1/SC(=S)N(CCC(=O)Nc2cccnc2)C1=O | 7%
COc1cc(NC(=O)C2CC(c3ccccc3Cl)=NO2)cc(OC)c1OC (centres undefined) | -13%
CC1CCN(C(=O)CN2C(=O)C(=O)N(C(C)C)C2=O)c2ccccc2S1 (centres undefined) | -4%
CN(C)c1ccc(NC(=O)c2cccc(N3C(=O)C4C5C=CC(C5)C4C3=O)c2)cc1 (centres undefined) | ?
Cc1ccccc1NC(=S)NCC1CCC(CNC(=S)Nc2ccccc2C)CC1 (centres undefined) | 7%
CC(C)c1cc(CNC(=O)c2ccc(OC3CCN(Cc4ccccn4)CC3)cc2)on1 | -11%
COc1cccc(N2CCN(Cc3nc(N)nc(N4CCCc5ccccc54)n3)CC2)c1 | 10%
O=C(CCS(=O)(=O)c1cccc2nsnc12)N1CCN(Cc2ccc3c(c2)OCO3)CC1 | -1%
O=C1CCc2cc(S(=O)(=O)Nc3ccccc3Cl)ccc2N1 | 5%
NS(=O)(=O)c1ccc(-c2ccc(/C=C3\NC(=S)NC3=O)o2)cc1 | 79µM*
CC1(C)CC(=O)C2=C(C1)OC(N)=C(C#N)C2c1ccc[nH]1 (centres undefined) | -12%
O=C(COC(=O)c1ccc(Cl)nc1)Nc1ccc2c(c1)CCC2 | 8%
COc1cc(C(=O)N/C(=C\c2cn(C)c3ccccc23)C(=O)N2CCOCC2)cc(OC)c1OC | -13%
CCC(CC)C(=O)Nc1cccc(C(=O)c2ccccc2)c1 | -5%
CCOc1ccc(N(CC(=O)N2CCN(c3ccccc3OC)CC2)S(=O)(=O)c2ccc(C)cc2)cc1 | -7%
Cc1cc(=O)[nH]c(Nc2cccc(Br)c2)n1 | 10%
CCn1c(SCCN2CCOCC2)nc2c1c(=O)n(C)c(=O)n2C | 0%
O=C(CCS(=O)(=O)c1ccc(Cl)cc1)NCCN1C(=O)S/C(=C\c2ccccc2F)C1=O | -11%
Cc1cc2c(n1-c1ccc(C(=O)NCc3ccc(OC(C)C)cc3)cc1)CCCC2 | 5%
Cc1cn2c(=O)cc(COC(=O)c3ccc(NC(=O)COc4ccc(C)c(C)c4)cc3)nc2s1 | 15%
COc1ccc(N2CCN(CC(=O)NCc3ccccc3)CC2)cc1 | -19%
COc1cc2c(cc1OC)C1(Nc3c-2c(-c2ccccc2)nn3-c2ccccc2)C(=O)Nc2ccccc21 (centres undefined) | 6%
O=C(CSc1nc(Nc2ccc(F)cc2)c2ccccc2n1)c1ccc(F)cc1 | 11%
CC1CCN(S(=O)(=O)c2ccc(C(=O)N(C)C3CCS(=O)(=O)C3)cc2)CC1 (centres undefined) | -2%
Cc1[nH]c2ccccc2c1/C=N/NC(=O)c1cccc([N+](=O)[O-])c1 | 5%
Nc1ccc(S(=O)(=O)NCC(=O)OCCOc2ccccc2)cc1[N+](=O)[O-] | -2%
CN(CCC#N)C(=O)COC(=O)[C@H](Cc1ccccc1)N1C(=O)c2ccccc2C1=O | 3%
C=CCOc1ccc(/C(O)=C2/C(=O)C(=O)N(CCCn3ccnc3)C2c2cccs2)cc1 (centres undefined) | 1%
Cc1ccc(NC(=O)c2ccc(C)c(NC3=NC4CS(=O)(=O)CC4S3)c2)cc1C (centres undefined) | -29%
Cc1cc(C)c(S(=O)(=O)NCC(CCC(=O)O)C(F)(F)F)c(C)c1 (centres undefined) | -6%
CCN(CC)S(=O)(=O)c1cccc(NC(=O)/C=C/c2cccc([N+](=O)[O-])c2)c1 | 12%
O=C(NNS(=O)(=O)c1ccc(F)cc1)C1CCCCC1 | -2%
CC(C)(C)C(=O)N1N=C(c2cccc(NS(C)(=O)=O)c2)CC1c1cccs1 (centres undefined) | 1%
Cc1ccc(-c2c(C(=O)N/N=C/c3ccsc3)nnn2-c2nonc2N)cc1 | 7%
CCOC(=O)C1CCCN(c2nnnn2-c2ccccc2)C1 (centres undefined) | -8%
COc1ccc(-c2ccc(C3C4C=CCC(C)C4C(=O)N3Cc3ccccc3)c(F)c2)cc1C (centres undefined) | -9%
CC(C)(C)OC(=O)C[C@@H]1C/C=C\C[C@H](CC(=O)N(CCO)Cc2ccccc2)C(=O)N[C@@H](c2ccccc2)COC1=O | 11%
COc1ccc(F)c(CN2CCC(N3CCC(C(=O)N4CCOCC4)CC3)CC2)c1 | -5%
CCn1c(SCC(=O)N/N=C/C=C/c2ccco2)nc2ccccc21 | ?
CC(=O)c1ccc(C(=O)N2CCC(n3nccc3NC(=O)C3CC3)CC2)cc1 | 0%
CCN(CC(=O)Nc1ccc(OC)cc1)C(=O)c1ccc(N2C(=O)CCC2=O)cc1 | -9%
CCCOc1ccc(C(=O)Nc2ccc(CN3CCOCC3)cc2)cc1 | -22%

Structural class: the compounds so far with two or more sulfur atoms (11)
SMILES | VDR inhibitor
C=CCNc1nnc(SCC(=O)N2CCC(C(N)=O)CC2)s1 | 1%
Cc1sc2ncn(CC(=O)NCCCOC(C)C)c(=O)c2c1S(=O)(=O)N1CCN(c2ncccn2)CC1 | -10%
CC(=O)Nc1ccc(SCC(=O)NNC(=O)CN(C)S(=O)(=O)c2ccc(C)cc2)cc1 | -9%
COc1ccccc1/C=C1/SC(=S)N(CCC(=O)Nc2cccnc2)C1=O | 7%
Cc1ccccc1NC(=S)NCC1CCC(CNC(=S)Nc2ccccc2C)CC1 (centres undefined) | 7%
O=C(CCS(=O)(=O)c1cccc2nsnc12)N1CCN(Cc2ccc3c(c2)OCO3)CC1 | -1%
NS(=O)(=O)c1ccc(-c2ccc(/C=C3\NC(=S)NC3=O)o2)cc1 | 79µM*
O=C(CCS(=O)(=O)c1ccc(Cl)cc1)NCCN1C(=O)S/C(=C\c2ccccc2F)C1=O | -11%
CC1CCN(S(=O)(=O)c2ccc(C(=O)N(C)C3CCS(=O)(=O)C3)cc2)CC1 (centres undefined) | -2%
Cc1ccc(NC(=O)c2ccc(C)c(NC3=NC4CS(=O)(=O)CC4S3)c2)cc1C (centres undefined) | -29%
CC(C)(C)C(=O)N1N=C(c2cccc(NS(C)(=O)=O)c2)CC1c1cccs1 (centres undefined) | 1%

Some of the compounds tested; rates above refer to the full screens.
